Kir21 block: inhibitors of mouse Kir2.1 inward-rectifier potassium channel; Inward rectifier potassium channel 2 (Mus musculus), P35561; HEK293-Kir2.1, FluxOR thallium flux fluorescence; active compounds read low; B-score at 10 µM; 310,000 tested, 0.85% active;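 active = fluorescence ratio B-score at or below minus 3 SD of library scores, with starting-brightness B-score within 2 SD, cut at about -4.2 in these data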;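 also: channel flux triggered by added potassium and thallium sulfate stimulus; B-score of peak minus minimum fluorescence over baseline after thallium stimulus; more negative B-score means stronger Kir2.1 block with less thallium influx; some compounds called inactive have numbers as strong as hits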
Target sequence (P35561 whole entry, looked up): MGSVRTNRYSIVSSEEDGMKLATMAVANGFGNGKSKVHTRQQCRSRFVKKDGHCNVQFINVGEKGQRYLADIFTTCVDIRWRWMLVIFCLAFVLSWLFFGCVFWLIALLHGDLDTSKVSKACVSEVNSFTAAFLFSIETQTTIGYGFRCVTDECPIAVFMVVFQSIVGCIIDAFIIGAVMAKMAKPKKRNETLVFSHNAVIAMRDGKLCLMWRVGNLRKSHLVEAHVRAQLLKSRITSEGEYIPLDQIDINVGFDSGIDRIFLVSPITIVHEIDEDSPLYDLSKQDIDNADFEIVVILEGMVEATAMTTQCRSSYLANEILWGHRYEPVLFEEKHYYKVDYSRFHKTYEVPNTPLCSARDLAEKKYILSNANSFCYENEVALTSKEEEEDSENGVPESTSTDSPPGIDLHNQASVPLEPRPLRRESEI
The depositor's hits bear a star. An excerpt, and most or all hits are left out here.

Start of the data: the first 16 records, ahead of the listing:
SMILES	Kir21 block
CC(C)C(OC(=O)c1cccs1)C(=O)NCc1cccs1 (stereo not drawn)	-2.2
CC1CCCCC1NC(=O)/C(C#N)=C/c1ccc2c(c1)OCCO2 (stereo not drawn)	-0.57
O=C1CCCC(O)=C1N=Nc1ccc(Cl)c(Cl)c1	-2
COc1cccc(C(C)NC(=O)c2c(F)cccc2Cl)c1 (stereo not drawn)	-0.14
CCN(CC)C(=O)Cn1cc(C(=O)C(=O)NCc2cccs2)c2ccccc21	-0.99
Cc1ccc(NC(=O)NC(=O)N(C2CCCCC2)S(=O)(=O)c2ccccc2)cc1	0.18
CC(NC(=O)c1ccco1)c1nc(-c2ccccc2Cl)no1 (stereo not drawn)	0.34
CN(C(=O)CNC(=O)c1ccc(Br)o1)C1CCCCC1	0.18
CCCc1nn2c(=O)cc(CSCC(=O)Nc3ccc(F)cc3)nc2s1	2.2
O=C(NCCN1CCN(c2ccccc2)CC1)c1cccc(Cl)c1	-2.4
COc1cc(C(=O)NC2CCN(CC(=O)NC3CCCCC3)CC2)cc(OC)c1OC	0.59
CCCCOC(=O)Nc1nc(C)c(C(=O)OCC)s1	0.07
CCOc1ccc(N/C(C)=C/C(=O)c2ccc3c(c2)OCCO3)cc1	0.5
Oc1ccc(-c2cccc(-c3ccc(O)cc3)c2)cc1	-1.4
O=C(Nc1cccc2ncccc12)c1cc(Br)ccc1Cl	0.31
Cc1nc2ccc(Br)cc2c(=O)n1Cc1cccs1	-1.4

The list itself, repeating the preview:
SMILES	Kir21 block
CC(C)C(OC(=O)c1cccs1)C(=O)NCc1cccs1 (stereo not drawn)	-2.2
CC1CCCCC1NC(=O)/C(C#N)=C/c1ccc2c(c1)OCCO2 (stereo not drawn)	-0.57
O=C1CCCC(O)=C1N=Nc1ccc(Cl)c(Cl)c1	-2
COc1cccc(C(C)NC(=O)c2c(F)cccc2Cl)c1 (stereo not drawn)	-0.14
CCN(CC)C(=O)Cn1cc(C(=O)C(=O)NCc2cccs2)c2ccccc21	-0.99
Cc1ccc(NC(=O)NC(=O)N(C2CCCCC2)S(=O)(=O)c2ccccc2)cc1	0.18
CC(NC(=O)c1ccco1)c1nc(-c2ccccc2Cl)no1 (stereo not drawn)	0.34
CN(C(=O)CNC(=O)c1ccc(Br)o1)C1CCCCC1	0.18
CCCc1nn2c(=O)cc(CSCC(=O)Nc3ccc(F)cc3)nc2s1	2.2
O=C(NCCN1CCN(c2ccccc2)CC1)c1cccc(Cl)c1	-2.4
COc1cc(C(=O)NC2CCN(CC(=O)NC3CCCCC3)CC2)cc(OC)c1OC	0.59
CCCCOC(=O)Nc1nc(C)c(C(=O)OCC)s1	0.07
CCOc1ccc(N/C(C)=C/C(=O)c2ccc3c(c2)OCCO3)cc1	0.5
Oc1ccc(-c2cccc(-c3ccc(O)cc3)c2)cc1	-1.4
O=C(Nc1cccc2ncccc12)c1cc(Br)ccc1Cl	0.31
Cc1nc2ccc(Br)cc2c(=O)n1Cc1cccs1	-1.4
CN(CCc1ccccn1)C(=O)CCC1CCCN(C(=O)CN2CCCCCC2)C1 (stereo not drawn)	1.7
O=C(Nc1ccon1)c1ccc(Br)s1	-3.7
CN1CCN(NC(=O)c2ccc(F)cc2)CC1	2.4
O=C(O)C1CN(c2ncccc2[N+](=O)[O-])C1	0.87
CCCOC(=O)c1ccc(NC(=O)CC(C)(C)C)cc1	-0.38
COC(=O)C1=C[C@@H](C(=O)OC)[C@@H]2C3=C(C(=O)[C@@]2(C)NC(=O)c2ccccc2)[C@H](C)C(C(=O)OC)=C(C(=O)OC)[C@@H]3C1	-0.01
Cc1c(NC(=O)c2cccnc2Cl)c(=O)n(-c2ccccc2)n1C	-0.06
O=C(NC1CCCc2ccccc21)C1CCC(CNS(=O)(=O)c2cccc3nsnc23)CC1 (stereo not drawn)	0
COC(c1ccccc1)c1nnc(CCC(=O)N2CCN(Cc3cccs3)CC2)o1 (stereo not drawn)	-1.1
CCOC(=O)/C(C#N)=C/Nc1ccccc1NS(=O)(=O)c1cccc(C(C)=O)c1	0.68
Cc1cc2c(N=O)c(NO)ccc2[nH]1	0
Cc1ccc(S(=O)(=O)N2CCN(Cc3ccccc3)CC2)cc1	1.1
Cc1ccc(SCC(=O)Nc2ccc(S(=O)(=O)Nc3nccs3)cc2)cc1	1.1
Cn1cccc1/C=C1\SC(=S)N(Nc2ccccc2)C1=O	1.7
O=C(NCc1ccc2c(c1)OCO2)c1cccc(S(=O)(=O)N2CCCCC2)c1	1.8
CCCCNC(=O)N(C)c1nncnc1C(=O)NC	0.91
CCCCOc1ccccc1C1C(C(N)=O)=C(C)Nc2nnnn21 (stereo not drawn)	1.3
NC(N)=NC1=NC(=O)/C(=C/c2ccccc2-n2cccn2)S1	0.42
Cc1ccc([N+](=O)[O-])cc1S(=O)(=O)Nc1ccc(OCC(=O)N2CCOCC2)cc1	-0.01
O=C(NC(n1ccc(=O)[nH]c1=O)C(Cl)(Cl)Cl)C12CC3CC(CC(C3)C1)C2 (stereo not drawn)	-0.54
Cc1cc([N+](=O)[O-])nn1CCCC(=O)NCc1ccccc1	0.6
CCOc1ccc(NC(=O)NC2CCCc3ccccc32)cc1 (stereo not drawn)	-0.67
N#CCC(=O)Nc1ccc(C(=O)OCC(=O)c2ccc3c(c2)OCO3)cc1	0.4
CCn1nc(C)cc1C(=O)NC1CCCc2c1cnn2-c1ccc(C)c(C)c1 (stereo not drawn)	-0.77
O=C(O)Cc1cn(Cc2ccc(F)cc2)c2ccccc12	-0.09
CC(Oc1ccc2c(=O)c(-c3ccc(Cl)cc3)c(C(F)(F)F)oc2c1)C(=O)O (stereo not drawn)	-0.18
CC1=CCC2C(=O)N(Cc3ccccc3)C(=O)C2C1 (stereo not drawn)	0.34
O=C(O)C/C(=C\c1ccc(N2CCOCC2)c([N+](=O)[O-])c1)c1nc2ccccc2s1	1.6
COc1ccc(NC(=O)c2ccccc2O)c(OC)c1	0.5
Cc1nnc(SCC(=O)Nc2ncc3c(n2)CC(c2ccccc2)CC3=O)s1 (stereo not drawn)	-1.9
COc1cc(NC(=O)c2ccc(CNc3c(N4CCOCC4)c(=O)c3=O)cc2)cc(OC)c1	0.45
CC(C)c1ccc(NC(=O)[C@H]2CSCN2C(=O)[C@@H]2CCC(=O)N2)cc1	1.2
Cc1cc(C)cc(-n2ncc3c2CCCC3NC(=O)C2CCC2)c1 (stereo not drawn)	-0.09
CC1CCCN(c2nc(NCc3ccco3)nc(N)c2[N+](=O)[O-])C1 (stereo not drawn)	-0.43
The list goes on.
SMILES	Kir21 block
Cc1ccc(-c2csc(N(CCc3ccccc3)C(=O)COc3ccccc3)n2)cc1	0.6
CCOC(=O)Cc1csc(NC(=O)c2ccc(C)o2)n1	0.24
CCOC(=O)CN1C(=O)C(=O)N(Cc2ccccc2)C1=O	-1.4
Cc1ccc(NC(=O)COC(=O)COc2ccc(Cl)cc2C)c([N+](=O)[O-])c1	-0.16
Cc1ccc(C(=O)N2CCCC(CCC(=O)N3CCN(c4ccccn4)CC3)C2)cc1 (stereo not drawn)	-0.82
Cc1ccc(S(=O)c2ccc(C)cc2)cc1	0.47
CC(NS(C)(=O)=O)C(c1cccs1)N1CCN(c2ccccc2F)CC1 (stereo not drawn)	2
CSc1nc2c(ccc3ccccc32)o1	-0.19
CCCCNC(=O)CCNC(=O)c1ccc(C(C)(C)C)cc1	-0.51
Cc1ccc(C)n1-c1ccc(C(=O)O)cc1	-0.17
Cc1ccc(NC(=S)NCc2ccccc2)cc1[N+](=O)[O-]	0.87
CCCc1nn(C)c(C(=O)Nc2cccc(C)c2)c1Cl	-0.99
O=c1c2cn[nH]c2nc(SCc2cc(=O)n3cc(Br)ccc3n2)n1-c1ccc(Br)cc1	0
Cc1ccc(C(=O)Nc2ccc(O)c(C(=O)O)c2)o1	2.1
N#Cc1ccc(NC(=O)Cn2cnc(S(=O)(=O)N3CCCCC3)c2)cc1	-0.4
COc1ccc(-c2coc3c(CN4CCCCC4C)c(O)ccc3c2=O)cc1 (stereo not drawn)	1.1
CC(C)CNc1ncnc2c1sc1nc(N3CCOCC3)c3c(c12)CC(C)(C)OC3	-0.71
O=C(C1CCCN(S(=O)(=O)c2cccc3nsnc23)C1)N1CCCCCC1 (stereo not drawn)	1.3
CCN(CC)c1ccc(NC(=O)CN2CCN(S(=O)(=O)c3cc(Cl)ccc3OC)CC2)cc1	-0.06
O=S(=O)(Nc1ccc(S(=O)(=O)N2CCOCC2)cc1)c1ccccc1	-0.14
CC(=O)Nc1ccc2nc(-c3ccncc3)[nH]c2c1	1.1
Cc1ccc([N+](=O)[O-])c2c1C(N1CCCCC1)C(C)(C)O2 (stereo not drawn)	1.1
CCOC(=O)C1=C(CSc2nncn2C)NC(=O)NC1c1cc(OCC)ccc1OCC (stereo not drawn)	-0.05
Cc1cc(C)n2c(SCc3cccs3)nnc2n1	-0.54
COCCNC(=O)Cc1ccc(F)cc1	-1.1
CCOC(=O)N1CCN(c2ccc(C(C)=O)cc2F)CC1C (stereo not drawn)	-0.55
CCOc1ccc(C(NC(=O)CC)c2c(O)ccc3ccccc23)cc1 (stereo not drawn)	1.2
COC(=O)CCS(=O)(=O)c1ccc(NC(C)=O)cc1	-0.01
O=C(Nc1ccccn1)c1cc2cc([N+](=O)[O-])ccc2s1	-0.73
CCOc1ccc(NC(=O)NNC(=O)COc2ccc3ccccc3c2)cc1	0.67
CCOc1cc(/C=C/C(=O)c2ccc(O)cc2)ccc1OCC(=O)N(C)C	-0.09
COc1ccc(Cc2noc(CN3CCCN(C4Cc5ccccc5C4)CC3)n2)cc1OC	-0.2
CCOC(=O)C(=O)Nc1ccc(OCc2ccccc2)cc1	-0.79
O=C(NCCSc1ccccc1)c1ccccc1	1.1
O=C(CNCCO)NC12CC3CC(CC(C3)C1)C2	-4.1
CC(C)NC(=S)N/N=C/c1sc(N2CCCCC2)nc1-c1cccs1	-2.8
Cc1ccc(N2C(=O)CC(N3CCSCC3)C2=O)c(C)c1 (stereo not drawn)	-0.85
COc1ccc(-n2nnnc2SCc2nc3ccccc3s2)cc1	1.5
CCc1ccc(NC(=O)CCc2ccc(C)o2)cc1	-0.22
CCOC(=O)c1c(C)nc2c3ccccc3ccn12	-0.04
CC1CCN(C(=O)CSc2nc3ccccc3c(=O)[nH]2)CC1	-2.5
NC(=O)C1CCN(CC(=O)Nc2ccccn2)CC1	-0.32
Cc1ccc(N2CC(NC(=O)N3CCN(C(=O)c4ccco4)CC3)CC2=O)cc1 (stereo not drawn)	0.24
CC(NC(=O)c1ccco1)c1cccc2ccccc12 (stereo not drawn)	-1
CCOC(=O)C1=C(C)NC(C)=C(C(=O)OCC)C1C(=O)OCC(N)=O	-0.19
CCC(=O)Nc1cccc(NC(=O)CSc2nnc(-c3ccc(NS(C)(=O)=O)cc3)n2C)c1	0.3
CCCCNC(=O)c1ccc2c(c1)N(CC)C(=O)c1ccccc1S2(=O)=O	0.22
CN(CCNC(=O)C1CCN(c2ncnc3c2nc2n3CCCCC2)CC1)Cc1ccccc1	-2.7
CCOC(=O)C1CCN(c2c(NCCN3CCN(c4ccccc4)CC3)c(=O)c2=O)CC1	-1.2
CC1(C)c2ccccc2N2CC(=O)N(CC(N)=O)C21C (stereo not drawn)	-0.1
(cont.)
SMILES	Kir21 block
Cn1c(NC(=O)C2CC2)cc(=O)n(C)c1=O	-1.4
Cc1cc(C(=O)CN2C(=O)NC3(CCCCC3)C2=O)c(C)n1-c1ccc2c(c1)OCO2	0.04
Cc1ccnc(NC(=O)CC(NC(=O)c2ccccc2Cl)c2ccccc2)c1 (stereo not drawn)	0.05
O=C(c1cnn2c(C(F)(F)F)cc(-c3ccc4c(c3)OCO4)nc12)N1CCCCC1	1.8
CC(=O)N1CCN(Cc2nc3cc(NC(=O)c4cccs4)ccc3n2C)CC1	0.39
Cc1ccc(C(=O)N2CCN(c3ccc(NC(=S)NC(=O)Cc4ccccc4)cc3)CC2)cc1	1.9
CCOc1ccc(NC(=O)n2ncc3c(C)cccc32)cc1	-0.01
O=C(c1ccco1)N1CCN(Cc2nc(Cc3ccccc3)no2)CC1	1.7
COc1ccc(NC(=O)NC(C(F)(F)F)C(F)(F)F)cc1	-0.81
COc1ccc(S(=O)(=O)NNC(N)=S)cc1	2
NC(=S)NNC(=O)/C(=C/c1ccc(Br)cc1)NC(=O)c1ccccc1	-1.4
CCOC(=O)N/N=C(\C)c1ccc(Oc2ncccn2)cc1	1
CCOC(=O)c1c2c(n(C)c1COC)C(=O)C(=O)c1ccc(Br)cc1-2	1.9
CCN(CC)CCNC(=O)CCc1nn(C)c(=O)c2ccccc12	0.24
COc1cccc(CSc2nc3ccccc3cc2C=O)c1	1.9
Cc1ccc(C)c(NC(=O)COC(=O)Cc2ccsc2)c1	0.72
Cn1c(COc2ccc(F)cc2)nc2ccccc21	1.9
Cc1ccc(C)n1NC(=O)c1ccc([N+](=O)[O-])cc1	2.5
CN1CCN2c3ncccc3Cc3ccccc3[C@@H]2C1	1.9
CCCOc1cc(C)c(S(=O)(=O)NCCOC)cc1C	0.57
O=C(C1COc2ccccc2O1)N1CCN(Cc2ccccc2)CC1 (stereo not drawn)	-0.04
CCC(=O)c1coc2ccc(O)cc12	0
COc1cc(/C=N/NC(=O)c2ccc(Cl)c(S(N)(=O)=O)c2)ccc1OCC(N)=O	0.18
Cc1ccc(S(=O)(=O)N2CCOCC2)cc1C(=O)OCC(=O)NC1CCS(=O)(=O)C1 (stereo not drawn)	1.4
O=C(O)C1CCCCC1C(=O)Nc1ccc(Cl)cc1Cl (stereo not drawn)	-0.73
Nc1c(Cl)cc(Cl)cc1C(=O)OCC(=O)N1CCCC1	-1.7
COc1ccc(/C=N/NC(=O)CCNc2n[nH]c(=O)[nH]c2=O)c(OC)c1	0.18
CCn1c(=O)c(C(=O)Nc2ccc(C)cc2)c(O)c2ccccc21	1.6
CCOC(=O)C(C)Sc1nnc(Cc2cc(=O)[nH]c(=O)[nH]2)n1-c1ccc(Cl)cc1 (stereo not drawn)	0.09
NS(=O)(=O)c1ccc(NC(=O)C2C3C=CC(C3)C2C(=O)O)cc1 (stereo not drawn)	0.42
CCOC(=O)/C(=C\c1ccc(Cl)cc1)c1nc2sc(C)c(C)c2c(=O)[nH]1	-2
